gsp antagonist = gsp mutant antagonism | 0.4% of 340,000 active | AID 624288 | gsp-mutant cells, cAMP HTRF, 30 min; control for the full effect not named in the record | Potency, µM (titrated, usually from 76.9 µM), without a hit: top-dose activity change, negative = inhibition, actives largely listed as inhibitors; active = falling curve of any shape with a large fitted effect; inconclusive = falling curve, mostly with a smaller effect; inactive = flat or rising curve; cell line not stated here;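 also: intracellular cAMP measured with PDE inhibitor Ro 20-1724 present during compound exposure; potency is read from the fitted curve at half-maximal effect; % is scaled to controls: 0 for no effect and ±100 for the full control effect; nearly all actives have a fitted effect of over 65% in size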
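Measurement of cellular cAMP by homogeneous time-resolved fluorescence following a 30 min compound exposure at 37C. The PDE inhibitor […] was present throughout; the assay buffer was DPBS with 0.05% BSA and 0.005% Tween 20.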
Menin-MLL FL inh = inhibitors of human menin-MLL interaction, wild-type MLL peptide | FP activity change, % at 61.4 µM | AID 1766 | Fluorescence polarization, fluorescein-MLL peptide displacement from menin | 290,000 tested, under 10 active; inconclusive = falling polarisation curve, or a change in total fluorescence; inactive = total fluorescence flat and polarisation flat or rising; no compound was filed as active; the % refers to the polarisation; negative = inhibition;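 also: % of control where 0% means no effect; inhibitors lower the polarisation; unlabelled MLL peptide was the positive control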
TRPV1 PAM = enhances activation of the human vanilloid receptor TRPV1; Q8NER1; TRPV1-expressing cells, Fluo-8 calcium influx, capsaicin EC20 potentiation; host cell line not named in the record; control for the full effect not named in the record; potentiation, % at 8.33 µM; 0.02% of 320,000 active; AID 540277; active means potentiation above 80%; inconclusive means 30% to 80%; inactive means below 30%; also: 0% is about no effect
Target sequence (Q8NER1 whole entry, looked up): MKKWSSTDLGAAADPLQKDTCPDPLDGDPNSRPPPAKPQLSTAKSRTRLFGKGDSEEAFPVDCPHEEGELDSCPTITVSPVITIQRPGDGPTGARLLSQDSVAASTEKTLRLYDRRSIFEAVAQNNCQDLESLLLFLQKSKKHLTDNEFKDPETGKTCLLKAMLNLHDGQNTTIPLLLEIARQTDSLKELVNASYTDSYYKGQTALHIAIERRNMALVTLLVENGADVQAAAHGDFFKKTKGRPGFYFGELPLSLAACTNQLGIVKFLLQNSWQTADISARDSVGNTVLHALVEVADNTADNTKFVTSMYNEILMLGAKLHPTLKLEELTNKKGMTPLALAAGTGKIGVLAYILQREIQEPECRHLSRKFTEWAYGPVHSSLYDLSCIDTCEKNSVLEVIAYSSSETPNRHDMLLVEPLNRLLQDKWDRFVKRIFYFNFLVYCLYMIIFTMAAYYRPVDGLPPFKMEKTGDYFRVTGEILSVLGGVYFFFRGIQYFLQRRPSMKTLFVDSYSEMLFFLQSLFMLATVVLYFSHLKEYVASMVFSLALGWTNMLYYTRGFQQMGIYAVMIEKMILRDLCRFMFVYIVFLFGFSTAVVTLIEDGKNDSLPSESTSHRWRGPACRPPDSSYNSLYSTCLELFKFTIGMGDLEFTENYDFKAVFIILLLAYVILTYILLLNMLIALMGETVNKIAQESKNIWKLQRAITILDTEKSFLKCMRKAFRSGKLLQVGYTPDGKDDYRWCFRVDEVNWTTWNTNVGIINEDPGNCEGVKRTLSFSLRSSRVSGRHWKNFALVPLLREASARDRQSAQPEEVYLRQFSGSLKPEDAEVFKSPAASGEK
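TRPV1-expressing cells were cultured overnight at 35.5C and loaded with Fluo-8 calcium dye for 40 to 90 min at room temperature. After a 10 s baseline, compound was added and calcium influx was read kinetically for 3 min (ex 480/em 520 nm).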
D2 potentiator = potentiates the human D2 dopamine receptor allosterically; DiscoveRx D2 beta-arrestin cells, luminescence, 90 min; 100% = 57 uM dopamine signal; AID 624464; 0.23% of 360,000 active; potentiation, % (test concentration not listed); P14416; active = potentiation of 50% or more; inconclusive = 30% to 50%; inactive = 30% or less;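 also: compound concentration not given in the record; tested on top of an EC20 dose of dopamine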
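D2 cells co-treated with compound plus 50 nM dopamine (EC20) for 90 min at 37 deg C to detect potentiation. Beta-arrestin recruitment was read as enzyme-fragment luminescence after 1 h at ambient temperature. Full response was set by 57 uM dopamine.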
gsp agonist = activates gsp, the McCune-Albright syndrome mutation. 0.13% of 340,000 active. gsp mutant cells, cAMP HTRF, 30 min; control for the full effect not named in the record. AID 624287. Potency, µM (top dose mostly 76.9 µM), for the others: top-dose activation (cAMP increase), usual class: activators; active = well fitted activation curve with a large enough effect; inconclusive = small, poorly fitted or top-dose-only effect, or another doubt; inactive = no such curve, though single readings can be large or run the other way; cell line not stated here;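 also: phosphodiesterase inhibitor Ro 20-1724 added with compounds to block cAMP breakdown; potency is read from the fitted curve at half-maximal effect; nearly all actives have a fitted effect of over 60% in size; about a fifth of the inactives were tested at one dose only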
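Cells in DMEM/10% FBS with G418 were pretreated with compounds in DMSO plus […] (300 uM stock) for 30 min at 37C. cAMP was measured by HTRF (cAMP-d2 plus anti-cAMP antibody-K) after 30 min at room temperature.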
Sfp inh = inhibitors of Bacillus subtilis Sfp phosphopantetheinyl transferase; Biochemical Sfp PPTase activity, qHTS; Potency, µM, for inactives: max response, negative = inhibition, usual class: inhibitors; 3.5% of 310,000 active; active = well fitted inhibition curve with a large enough effect; inconclusive = small, poorly fitted or top-dose-only effect, or another doubt; inactive = no such curve, though single readings can be large or run the other way;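 also: the enzyme is Sfp with the accession as filed and its product quenches rhodamine fluorescence; potency is read from the fitted curve at half-maximal effect; 0% = enzyme reaction without inhibitor and -100% = no enzyme wells; top concentration of the series not given in the record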
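Step 1, compound plus 15 nM Sfp-PPTase, 15 min, room temperature. Step 2, add rhodamine-CoA (5 uM) and BHQ-2-YbbR (12.5 uM). Step 3, read 525/598 nm fluorescence at 0 and 30 min.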
ClpP mod = qHTS Assay for Activators of ClpP; ATP-dependent Clp protease proteolytic subunit (Bacillus subtilis (strain 168)), P80244; purified B. subtilis ClpP, FRET peptide cleavage, 20 min; Potency, µM (highest dose often 57.5 µM), without a hit: top-dose activity change, negative = active; 1.9% of 340,000 active; active = well fitted falling curve with a large enough effect; inconclusive = small, poorly fitted or top-dose-only effect; inactive = no such curve, though single readings can be large or run the other way; also: potency is read from the fitted curve at half-maximal effect; the source files actives as falling curves though it sought activators and does not explain the sign; nearly all actives have a fitted effect of over 65% in size; many hits overshoot -100%
Target sequence (P80244 whole entry, looked up): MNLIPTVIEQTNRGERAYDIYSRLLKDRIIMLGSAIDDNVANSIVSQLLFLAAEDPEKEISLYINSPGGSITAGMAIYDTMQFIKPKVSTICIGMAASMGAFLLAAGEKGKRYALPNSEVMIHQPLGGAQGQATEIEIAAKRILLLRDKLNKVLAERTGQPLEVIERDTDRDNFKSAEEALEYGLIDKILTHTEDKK
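FRET quenching reversal measured ClpP activation: 10 microg/mL B. subtilis ClpP at pH 8 with the FRET-FV decapeptide, read at 430 nm after 320 nm excitation. The 20-min minus 0-min signal was scaled between DMSO/no-enzyme wells and ADEP (5.8 microM final).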
Starred values were filed as active, the others as inactive; [ ] = another dose, or the depositor's remark. Rows are unselected; any-hit rate near 5.1%.

Results for Cc1cc(C)n2nc(SCC(=O)N3CCC(C)CC3)nc2n1 ?
gsp antagonist: -1.3%; D2 potentiator: -17.5; gsp agonist: 20.9%[15.4 µM]; ClpP mod: -1.8%

What do the screens show for `COc1ccc(/C(C)=C2\SC(=S)N(CCC(=O)O)C2=O)cc1`?
gsp antagonist: -20.3%; Menin-MLL FL inh: 14.0; TRPV1 PAM: 1.5; D2 potentiator: inconclusive; gsp agonist: -49.6%[inhibitor]; Sfp inh: -14.8%; ClpP mod: 0.3%

Results for CC1CCN(C(=O)Cc2nn(C)c(=O)c3ccccc23)CC1 ?
gsp antagonist: -4.3%[15.4 µM]; Menin-MLL FL inh: 5.0; TRPV1 PAM: inconclusive; D2 potentiator: 5.7; gsp agonist: 23.4%; Sfp inh: 13.4%; ClpP mod: -3.1%

Results for COc1ccccc1C(=O)Nc1ccc(S(=O)(=O)N2CCC(C)CC2)cc1 ?
gsp antagonist: -34.8%; Menin-MLL FL inh: 0.4; TRPV1 PAM: 4.0; D2 potentiator: -7.9; gsp agonist: 24.5%[15.4 µM]; Sfp inh: -0.1%; ClpP mod: -9.7%

Results for COc1ccc(C(=O)CCN2CCC(C)CC2)cc1 ?
gsp antagonist: -1.9%; Menin-MLL FL inh: -2.3; TRPV1 PAM: inconclusive; D2 potentiator: -13.5; gsp agonist: -50.4%[inhibitor]; Sfp inh: -3.9%; ClpP mod: 2.4%

How did C=CC[C@H](CC(=O)N(CCO)Cc1ccccc1)C(=O)NC[C@H](OC(=O)[C@@H](CC=C)Cc1ccc(F)cc1)c1ccccc1 do in these assays?
gsp antagonist: inconclusive; D2 potentiator: 5.9; gsp agonist: 17.8%; ClpP mod: -0.2%

How did COCc1ccc(CN2CCC(N3CCC(C(=O)N4CCCC4)CC3)CC2)o1 do in these assays?
gsp antagonist: 16.3%; TRPV1 PAM: 24.5; D2 potentiator: -7.6; gsp agonist: -3.3%; Sfp inh: 5.3%; ClpP mod: 0.4%

How did CCCCn1c(=O)[nH]c(=O)c2c1nc(-c1cc(Br)ccc1OC)n2C do in these assays?
gsp antagonist: -0.7%; Menin-MLL FL inh: 0.1; TRPV1 PAM: 12.8; D2 potentiator: -0.9; gsp agonist: 14.3%[15.4 µM]; Sfp inh: 4.4%

Results for Cc1ccc([N+](=O)[O-])c(C(=O)N/N=C/c2cccs2)c1 ?
gsp antagonist: -8.5%; Menin-MLL FL inh: -0.4; TRPV1 PAM: 20.0; D2 potentiator: -26.8; gsp agonist: inconclusive; Sfp inh: -5.5%; ClpP mod: -0.6%

How did CCN(CC)C(=O)c1ccc(Cn2cc([N+](=O)[O-])cn2)o1 do in these assays?
gsp antagonist: -14.5%; Menin-MLL FL inh: -2.5; TRPV1 PAM: -11.6; D2 potentiator: -7.0; gsp agonist: -20.8%; Sfp inh: 26.8%; ClpP mod: 1.8%

What do the screens show for `Cc1cccc(C)c1N1CCN(S(=O)(=O)c2ccccc2)CC1`?
gsp antagonist: 3.8%; Menin-MLL FL inh: -2.3; TRPV1 PAM: 5.6; D2 potentiator: -2.1; gsp agonist: -0.5%; Sfp inh: -3.9%; ClpP mod: -1.6%

How did COC(c1ccccc1)c1nnc(CCC(=O)N(C)Cc2cccc(-n3cccn3)c2)o1 (stereo unspecified) do in these assays?
gsp antagonist: -4.7%; Menin-MLL FL inh: 0.7; TRPV1 PAM: 6.5; D2 potentiator: -6.5; gsp agonist: inconclusive; Sfp inh: -7.5%; ClpP mod: 0.3%

What do the screens show for `CCOC(=O)C(=CNc1ccc(NC2=NCC(C)S2)cc1)C(=O)OCC` (stereo unspecified)?
gsp antagonist: -17.7%; TRPV1 PAM: -15.0; D2 potentiator: 13.1; gsp agonist: -25.1%; Sfp inh: 3.5%; ClpP mod: -5.5%

What do the screens show for `COc1ccc(N(CC(=O)Nc2cccc(F)c2)S(=O)(=O)c2c(C)[nH]c(=O)[nH]c2=O)cc1`?
gsp antagonist: 0.5%; Menin-MLL FL inh: -3.2; TRPV1 PAM: -12.1; D2 potentiator: -7.5; gsp agonist: 24.7%; Sfp inh: 18.2%; ClpP mod: 1.1%

Results for CCC(C)OC(=O)C[N+](C)(C)CCOC1CC2CCC1(C)C2(C)C (stereo unspecified) ?
gsp antagonist: 8.3%; Menin-MLL FL inh: 1.9; TRPV1 PAM: -3.2; D2 potentiator: 3.2; gsp agonist: 9.3%; Sfp inh: 10.8%

What do the screens show for `COc1cccc(C2c3[nH]c4ccccc4c3C[C@H]3C(=O)N(C4CCN(Cc5ccccc5)CC4)CC(=O)N23)c1` (stereo partly specified)?
gsp antagonist: -4.3%; Menin-MLL FL inh: 9.3; TRPV1 PAM: 8.2; D2 potentiator: -24.5; gsp agonist: 1.9%; Sfp inh: 8.9%; ClpP mod: -8.5%

What do the screens show for `Cc1cc(C(=O)Nc2cccc(C(=O)O)c2)oc1C`?
gsp antagonist: 9.5%; Menin-MLL FL inh: 3.4; TRPV1 PAM: -8.1; D2 potentiator: 4.8; gsp agonist: -33.1%[inhibitor]; Sfp inh: 10.0%; ClpP mod: -2.6%

What do the screens show for `Cc1nnc(SCC(=O)Nc2ccccc2F)n1-c1ccc(F)cc1`?
gsp antagonist: 5.2%; Menin-MLL FL inh: 7.8; TRPV1 PAM: 15.6; D2 potentiator: -12.0; gsp agonist: 18.2%; Sfp inh: 15.0%; ClpP mod: 0.0%

What do the screens show for `COC(=O)C1(CCSC)NC(c2ccc(OC)cc2OC)C2C(=O)N(c3cccc(C(C)=O)c3)C(=O)C21` (stereo unspecified)?
gsp antagonist: -6.1%; Menin-MLL FL inh: -1.3; TRPV1 PAM: -29.9; D2 potentiator: -4.5; gsp agonist: 22.2%; Sfp inh: 8.6%; ClpP mod: 0.4%

How did CCOc1ccc(S(=O)(=O)NC(C)C(=O)NCc2cccnc2)cc1 (stereo unspecified) do in these assays?
gsp antagonist: 2.5%; Menin-MLL FL inh: 4.7; TRPV1 PAM: -4.8; D2 potentiator: -4.3; gsp agonist: -10.3%[15.4 µM]; Sfp inh: -0.2%

Results for Cc1nnc2sc(SCC(=O)Nc3cccc(Cl)c3)nn2c1=O ?
gsp antagonist: -4.0%; Menin-MLL FL inh: 0.5; TRPV1 PAM: 5.0; D2 potentiator: -1.0; gsp agonist: inconclusive; Sfp inh: -3.3%

Results for CCn1c(C)nc([N+](=O)[O-])c1Sc1ccc(F)cc1 ?
gsp antagonist: 5.1%; TRPV1 PAM: inconclusive; D2 potentiator: -4.2; gsp agonist: -41.3%[inhibitor]; Sfp inh: -1.5%; ClpP mod: -1.0%

What do the screens show for `N#Cc1c(C(F)(F)F)cc(=O)n2c1[nH]c1ccccc12`?
gsp antagonist: -22.4%; Menin-MLL FL inh: -2.5; TRPV1 PAM: -1.8; D2 potentiator: 23.9; gsp agonist: 1.6%[15.4 µM]; Sfp inh: 17.0%; ClpP mod: -10.3%

How did CCOc1ccccc1NC1c2ccccc2C(=O)N1c1cccnc1 (stereo unspecified) do in these assays?
gsp antagonist: -5.2%; Menin-MLL FL inh: 0.0; TRPV1 PAM: -8.5; D2 potentiator: -3.4; gsp agonist: 16.6%; Sfp inh: -1.8%; ClpP mod: -2.9%

How did COC(=O)C(CC(=O)c1ccc(Br)cc1)n1cccn1 (stereo unspecified) do in these assays?
gsp antagonist: -15.1%; Menin-MLL FL inh: -0.9; TRPV1 PAM: 14.8; D2 potentiator: 0.5; gsp agonist: 16.7%[15.4 µM]; Sfp inh: inconclusive; ClpP mod: -0.7%

What do the screens show for `O=c1[nH]c(C2CCN(S(=O)(=O)c3ccccc3F)CC2)nc2c1nnn2Cc1ccc2c(c1)OCCO2`?
gsp antagonist: 20.3%; TRPV1 PAM: 5.5; D2 potentiator: -14.5; gsp agonist: 0.0%; Sfp inh: -0.9%; ClpP mod: 1.5%

Results for CC(NC(=O)c1ccncc1)C(c1cccs1)N1CCOCC1 (stereo unspecified) ?
gsp antagonist: 2.2%; Menin-MLL FL inh: -1.6; TRPV1 PAM: -1.0; D2 potentiator: 3.8; gsp agonist: 6.5%; Sfp inh: 0.0%; ClpP mod: 0.9%

Results for Cc1cc(CN(C)C(=O)c2cc(COc3ccc(C)c(C)c3)on2)on1 ?
gsp antagonist: -13.0%; TRPV1 PAM: -2.0; D2 potentiator: -8.4; gsp agonist: -3.0%; Sfp inh: 10.1%; ClpP mod: -1.1%

What do the screens show for `CCCCN(CC)Cc1c(O)ccc2c(-c3ccccc3)cc(=O)oc12`?
gsp antagonist: -3.6%; Menin-MLL FL inh: 4.4; TRPV1 PAM: -7.4; D2 potentiator: -35.1; gsp agonist: 20.3%; Sfp inh: 0.3%; ClpP mod: -26.2%

How did CCOC(=O)N1CCC(NC(=O)CN2C(=O)CSc3nc(C)cc(C)c32)CC1 do in these assays?
Menin-MLL FL inh: 4.0; TRPV1 PAM: -4.8; Sfp inh: 28.8%

What do the screens show for `Cc1c(NS(=O)(=O)c2ccc(C(=O)NCc3ccc(F)cc3)cc2)c(=O)n(-c2ccccc2)n1C`?
gsp antagonist: -20.5%; TRPV1 PAM: -6.5; D2 potentiator: 2.4; gsp agonist: inconclusive; ClpP mod: 0.7%

Results for CCOc1ccc(/C=N/NC(=S)NC2CC3CCC2C3)cc1 (stereo unspecified) ?
gsp antagonist: -30.7%; Menin-MLL FL inh: -2.5; TRPV1 PAM: 0.3; D2 potentiator: -9.1; gsp agonist: 9.3%[15.4 µM]; Sfp inh: 15.1%; ClpP mod: inconclusive

What do the screens show for `C[C@@H]1CN([C@H](C)CO)C(=O)c2c(c3ccccc3n2C)-c2ccccc2CO[C@H]1CN(C)C(=O)NC1CCCCC1`?
D2 potentiator: -2.5; gsp agonist: inconclusive; ClpP mod: -13.9%

Results for O=[N+]([O-])c1ccc2oc(C(O)c3cccc(Cl)c3)cc2c1 (stereo unspecified) ?
gsp antagonist: -3.7%; Menin-MLL FL inh: 30.5[activator]; TRPV1 PAM: 1.0; D2 potentiator: 2.5; gsp agonist: -43.0%[inhibitor]; Sfp inh: 1.2%

What do the screens show for `Clc1cccc(N/N=C/c2ccncc2)c1`?
gsp antagonist: -0.7%; Menin-MLL FL inh: -1.2; TRPV1 PAM: 13.8; D2 potentiator: inconclusive; gsp agonist: -8.4%; Sfp inh: -1.7%; ClpP mod: -3.5%

How did CC1(c2ccccc2)CC(c2ccccc2)=Nc2ccccc2N1 (stereo unspecified) do in these assays?
gsp antagonist: -3.5%; Menin-MLL FL inh: -0.8; TRPV1 PAM: 7.7; D2 potentiator: 0.9; gsp agonist: 0.6%[15.4 µM]; Sfp inh: 14.8%

Source: PubChem
